Bioassay records (PubChem)
YopH PTP inh: inhibitors of Yersinia enterocolitica YopH tyrosine phosphatase. fluorescence Ex485/Em525. inhibition, %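 (about 10 µM by stock and volumes)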. 140,000 compounds, 0.16% hits. AID 898;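 active = inhibition of 50% or more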;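 note: controls were vehicle for no effect and minimum signal wells for full effect; inactives centre near -20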
Mtb growth: M. tuberculosis H37Rv growth inhibitors, H37Rv strain (AID 1626); M. tuberculosis H37Rv growth inhibition; higher % means a stronger effect; inhibition, % at 10 µM; hits with a dose series show IC50 in µM; 220,000 compounds, 0.95% hits;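 active = confirmed in a dose series; inconclusive = inhibition above 80% but not taken into the dose series; inactive = below 80% or under 30% at every dose of the series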;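 note: bacteria incubated seven days before Alamar blue readout; 0% = bacteria only wells and 100% = bacteria with antibiotic wells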
Mtb bLac sens: beta-lactam sensitization of Mtb H37Rv. M. tuberculosis H37Rv growth with meropenem, percent inhibition; hits of this screen are not shown here. 330,000 compounds, 0.27% hits. AID 434955. inhibition, % at 25 µM;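 active = about 74% or more and at least 40 points above the plate without the antibiotic, then above 30% in a dose series; inconclusive = first-round hits that could not be retested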;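 note: growth measured after seven days incubation then overnight dye step; 0% = bacteria only wells and 100% = bacteria with antibiotic; twin plates without the antibiotic show which effects depend on it; some results filed as inactive read as strong as hits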
RecA intein inh: inhibitors of M. tuberculosis RecA intein splicing; cell-free RecA intein splicing, fluorescence; inhibition, %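 (about 9 µM by stock and volumes)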; 290,000 compounds, 0.75% hits; in the data active = inhibition above about 30%; inconclusive = no clear call, values can overlap the other calls;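 note: 0% = vehicle wells and 100% = reference inhibitor control wells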
Target sequence (P9WHJ3 whole entry, looked up): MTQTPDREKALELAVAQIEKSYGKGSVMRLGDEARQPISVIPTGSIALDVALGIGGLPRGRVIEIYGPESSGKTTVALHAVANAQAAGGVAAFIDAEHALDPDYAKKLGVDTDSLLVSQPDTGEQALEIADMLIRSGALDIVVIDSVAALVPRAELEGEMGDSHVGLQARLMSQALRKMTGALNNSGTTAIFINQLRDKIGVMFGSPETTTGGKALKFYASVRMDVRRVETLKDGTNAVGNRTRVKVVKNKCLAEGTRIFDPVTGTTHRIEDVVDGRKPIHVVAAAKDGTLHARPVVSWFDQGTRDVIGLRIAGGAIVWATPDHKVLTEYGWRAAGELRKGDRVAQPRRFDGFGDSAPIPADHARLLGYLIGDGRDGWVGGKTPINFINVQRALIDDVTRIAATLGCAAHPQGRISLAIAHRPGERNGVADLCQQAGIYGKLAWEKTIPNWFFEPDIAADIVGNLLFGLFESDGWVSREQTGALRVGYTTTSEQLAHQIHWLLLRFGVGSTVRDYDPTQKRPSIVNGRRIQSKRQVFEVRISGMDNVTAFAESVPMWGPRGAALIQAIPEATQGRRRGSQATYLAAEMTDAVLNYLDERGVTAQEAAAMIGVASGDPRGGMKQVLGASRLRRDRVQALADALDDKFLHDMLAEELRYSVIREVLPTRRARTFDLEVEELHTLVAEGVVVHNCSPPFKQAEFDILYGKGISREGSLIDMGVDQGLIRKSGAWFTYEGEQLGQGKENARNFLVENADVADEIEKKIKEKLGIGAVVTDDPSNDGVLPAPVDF
Arbovirus anti: blocks arbovirus infection | arbovirus infection cell-based antiviral screen | inhibition, % at 10 µM | 200,000 compounds, 0.37% hits;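 active = inhibition from about 30%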;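 note: bluetongue infection of BSR cells; cell survival read as ATP light after 72 h; 0% = infected wells without compound and 100% = uninfected wells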
Arbovirus anti repeat: recorded beside Arbovirus anti, whose call it bears; inhibition, %; measured here: 10K subset replicate screen; many hits read low in the repeat;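 first of two repeat runs on a subset; 0% = infected and 100% = uninfected wells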
An asterisk follows results filed as active; i = inactive; ? = inconclusive; . = no result given. This is a subset, so the mix of outcomes need not match the whole.

SMILES | YopH PTP inh | Mtb growth | Mtb bLac sens | RecA intein inh | Arbovirus anti | others
CCOC(=O)C(C)Sc1ncnc2c1nnn2-c1ccc(F)cc1 (stereo not given) | -35 | 2.5µM* | 99 | 37* | 2
Cc1cc(C(=O)COC(=O)Cn2cnc3c2c(=O)n(C)c(=O)n3C)c(C)n1C | -36 | -7% | 3 | 3.4 | 5
O=C(NC1CCC1)C1CCC(=O)N(Cc2ccccc2F)C1 (stereo not given) | . | . | -1 | 0.4 | .
CC(=O)Nc1ccc2sccc2c1 | . | 43% | 55 | -3.8 | 17
O=c1[nH]nc(SCc2ccccc2Cl)n1-c1ccc2c(c1)OCCO2 | . | 1% | 4 | . | .
COC(=O)c1c(N2C(=O)[C@H]3[C@@H](C2=O)[C@]2(C(=O)Nc4c(C)cccc42)N2CCC[C@@H]32)sc(C)c1C | -24 | -2% | -1 | 4.0 | -3
S=C(NCCc1ccccc1)N1CCN(Cc2ccccc2)CC1 | -18 | 3% | -4 | 1.4 | 12
CCC(Sc1nnnn1-c1ccccc1)C(=O)Nc1nc2ccccc2s1 (stereo not given) | -32 | 0% | 43 | 9.0 | -17
Cc1ccc(S(=O)(=O)c2nc(S(=O)(=O)c3ccccc3)sc2N2CCN(CCO)CC2)cc1 | . | . | -9 | 7.9 | .
CC1CCc2[nH]c3ccc(C(=O)Nc4ccc(C(=O)N(C)C)cc4)cc3c2C1 (stereo not given) | . | . | 1 | -13 | .
COc1ccc(OC)c(S(=O)(=O)N2CCCC(C(=O)N3CCCCCC3)C2)c1 (stereo not given) | . | . | 1 | 0.4 | .
CCOC(=O)C1=C(O)C(=O)N(c2ccc(S(N)(=O)=O)cc2)C1c1cccc([N+](=O)[O-])c1 (stereo not given) | . | -5% | -6 | 0.6 | .
O=C(O)CP(=O)(O)O | -20 | -9% | 5 | 1.4 | 3
O=C(Cc1ccc(Cl)cc1)Nc1ccccc1CO | 9 | 2% | -15 | . | 1 | Arbovirus anti repeat=6
CCCSc1nc2cc(S(=O)(=O)N3CCOCC3)ccc2n1CC | . | . | -13 | 1.5 | .
Cc1cccc(NC(=O)CCC(=O)Nc2nnc(C3CCCCC3)s2)c1 | . | . | 1 | 1.0 | .
CCOC(=O)c1ccc(N2Cc3ccccc3C2)cc1O | -14 | 13% | -10 | -0.6 | -5
O=C(CN1CCC(n2nnc3cc(F)ccc32)CC1)NCCc1ccccc1 | 36 | 3% | -4 | 0.1 | 1
O=C(CSc1nc(O)cc(=O)[nH]1)N1c2ccccc2Sc2ccccc21 | . | ? | -5 | 1.0 | -9
O=C(CCCn1c(=S)[nH]c2ccccc2c1=O)N1CCCCC1 | 16 | -7% | 4 | 1.3 | 0
CCN(CC)S(=O)(=O)c1cccc(NC(=O)c2ccc(C#N)cc2)c1 | . | 3% | -9 | -3.2 | -3
Cc1cc(-c2nnc(CCC(=O)N3CCN(Cc4cccnc4)CC3)o2)c(C)o1 | . | 5% | 6 | -0.3 | 5
COc1ccc(-c2csc(N3CCC(c4ccccc4)C3)n2)cc1 (stereo not given) | -23 | -7% | 5 | -1.4 | 9
Cc1cc(NC(=O)c2ccc3nc(-c4ccccc4)c(-c4ccccc4)nc3c2)no1 | 13 | -4% | -2 | 0.5 | -26
O=C(CSc1nc2c(c(=O)[nH]1)CN(Cc1ccc(F)cc1)CC2)Nc1ccc(F)cc1 | -28 | -11% | 4 | -2.2 | 19
Following part
SMILES | YopH PTP inh | Mtb growth | Mtb bLac sens | RecA intein inh | Arbovirus anti | others
Nc1nc(CCl)nc(Nc2cccc3ccccc23)n1 | . | ? | 99 | 16 | .
COc1ccc(-c2noc(-c3ccccc3F)n2)cc1 | -45 | 12% | 7 | 2.8 | 5 | Arbovirus anti repeat=1
Cc1cccc(OCc2nnc(SCc3cc(=O)n4cc(Br)ccc4n3)o2)c1 | . | -4% | 98 | 2.6 | 11
COCCN(C(=O)COC(=O)c1c(NC(C)=O)sc(C)c1C)c1c(N)n(Cc2ccccc2)c(=O)[nH]c1=O | . | . | -7 | -1.2 | .
Cc1nc(N2CCOCC2)nc(N2CCCC2)c1[N+](=O)[O-] | -13 | 7% | 3 | 2.9 | 7
COCCNC(=O)c1cccc2c1-c1ccccc1C2=O | . | . | -1 | 1.2 | .
Cc1nn(-c2ccc(C(=O)O)cc2)c2c1C(=O)CC(C)(C)C2 | . | -4% | 4 | -2.3 | .
Cc1ccccc1C(=O)Nc1ccnn1C1CCN(CCCc2ccccc2)CC1 | . | . | -3 | 3.6 | .
CC(C)(C)c1ccc(OCC(=O)Nc2ccc(C(=O)Nc3ccccc3C(=O)O)cc2)cc1 | . | . | -11 | -1.4 | .
CCC(Sc1nnnn1-c1ccccc1)C(=O)NC(C)c1ccccc1 (stereo not given) | 25 | -3% | -11 | -1.1 | -10
O=C(CN(Cc1ccco1)C(=O)c1cc(=O)[nH]c2ccccc12)Nc1ccccc1Br | -25 | -6% | -3 | 27 | 2
CCOC(=O)C1(Cc2ccccc2Cl)CCN(S(=O)(=O)N(C)C)CC1 | . | -14% | 5 | 3.0 | 3
CCN(CC)S(=O)(=O)c1ccc2[nH]cc(C(=O)NCCN3CCCCCC3)c(=O)c2c1 | -26 | . | -13 | 0.3 | 6
CC(=O)Nc1ccc(S(=O)(=O)Oc2ccccc2N2C(=O)C3C4CCC(C4)C3C2=O)cc1 (stereo not given) | . | . | ? | -0.2 | .
NNC(=O)c1cccn(Cc2ccc(Cl)cc2Cl)c1=O | . | . | 4 | 4.1 | .
Cc1noc(C)c1C(=O)N1CCN(Cc2ccccc2)CC1 | -17 | 3% | 3 | 1.8 | 5
CCN(CC)CCn1c2c(c(SCC(=O)Nc3cc(C)on3)nc1=O)CCCC2 | . | . | -4 | 1.3 | .
CCOc1ccc(N2C(=O)CC(N(CCc3ccc(OC)c(OC)c3)C(=S)Nc3ccccc3)C2=O)cc1 (stereo not given) | 4 | 2% | 17 | -1.9 | 3
O=C(Nc1cccc(Cl)c1)c1cc(F)cc2c1OCOC2 | . | -10% | -8 | . | .
Cn1ncc(Br)c1C(=O)OCC(=O)Nc1nc(-c2ccccc2)cs1 | 9 | -4% | 10 | 6.0 | 5
COc1ccc(-c2cc(C(=O)Nc3nc4c(C)cccc4s3)c3ccccc3n2)cc1OC | -40 | 12% | 27 | -2.3 | 18
Cc1ccc2c(Cl)c(C(=O)Nc3cc(C)on3)sc2c1 | -26 | -2% | -3 | -1.0 | -11
O=C(CCn1nc(-c2ccc(Cl)cc2)c2ccccc2c1=O)NCCN1CCOCC1 | -7 | -12% | 13 | -1.6 | 7
CCN(C(=O)Cc1c(C(=O)O)n(C)c2ccccc12)c1cccc(C)c1 | . | . | 7 | -0.8 | .
C/C(Cn1nnc2ccccc21)=N\OC(=O)c1cc(F)c(F)cc1Cl | . | 60% | 9 | 6.5 | -2

Reprinted at random: four compounds from above.
SMILES | YopH PTP inh | Mtb growth | Mtb bLac sens | RecA intein inh | Arbovirus anti | others
O=C(Nc1cccc(Cl)c1)c1cc(F)cc2c1OCOC2 | . | -10% | -8 | . | .
COCCNC(=O)c1cccc2c1-c1ccccc1C2=O | . | . | -1 | 1.2 | .
Cn1ncc(Br)c1C(=O)OCC(=O)Nc1nc(-c2ccccc2)cs1 | 9 | -4% | 10 | 6.0 | 5
COc1ccc(-c2noc(-c3ccccc3F)n2)cc1 | -45 | 12% | 7 | 2.8 | 5 | Arbovirus anti repeat=1

Further records follow:
SMILES | YopH PTP inh | Mtb growth | Mtb bLac sens | RecA intein inh | Arbovirus anti | others
O=C(Nc1ccc(Oc2ncnc3cc(Cl)ccc23)nc1)c1ccc(F)cc1 | . | -9% | -6 | 1.5 | .
Cc1cccc(NC(=O)C2C3C=CC4(O3)C2C(=O)N(CCCN2CCCC2)C4C(=O)NC2CCCC(C)C2C)c1 (stereo not given) | . | . | -1 | 3.1 | .
CCCCCCSc1nsc(N)n1 | -25 | 1% | 82 | 5.6 | 0
COCc1cc(C)nc(OCC(=O)N/N=C/c2ccc(O)cc2O)c1C#N | . | -5% | -1 | -2.6 | 3
Cc1ccccc1C(=O)NNC(=O)C1CCN(c2ncccn2)CC1 | . | . | 9 | -1.6 | .
CN(C)c1cccc(C(=O)NNC(=S)NC2CC3CCC2C3)c1 (stereo not given) | . | 3% | 2 | 0.4 | 13
Cc1nc(NS(=O)(=O)c2ccccc2C)c2c3c(sc2n1)CCC3 | 21 | -12% | 14 | 2.5 | 38*
CCCN1/C(=C(/C#N)C2=NS(=O)(=O)c3ccccc32)N(C)c2ccccc21 | -52 | 5% | -3 | -6.7 | 7
COC(=O)COc1ccc(S(=O)(=O)N2CCN(c3ccccc3)CC2)cc1 | . | -7% | 5 | -5.0 | 25
CCOP(=O)(OCC)C(NC(=O)c1cccs1)C(F)(F)F (stereo not given) | . | -1% | 5 | -0.4 | 19
Cc1oc2c(C)c3oc(=O)c4c(c3cc2c1C)CCC4 | -24 | -3% | . | -2.0 | -3
O=C1Nc2ccc(F)cc2C12Nc1ccccc1-c1nnc(SCc3ccccc3)nc1O2 (stereo not given) | -32 | 1% | 0 | 4.3 | 9
O=C1c2ccccc2S(=O)(=O)c2cc(C(=O)N3CCN(c4c(Cl)cncc4Cl)CC3)ccc21 | . | 38% | 10 | 6.2 | .
COc1ccc(NC(=O)c2ccc3c(c2)C(=O)N(CC2CCCO2)C3=O)c(OC)c1 (stereo not given) | . | . | 26 | -1.8 | .
O=S(=O)(CCN1CCN(c2ccccn2)CC1)c1ccc(Cl)cc1Cl | . | -6% | -2 | 3.8 | .
COc1cccc2cc(C(=O)NCc3ccc(C)cc3)c(=N)oc12 | . | . | 51 | 3.7 | .
CCc1ccc(NC(=O)NC(C)c2ccc3c(c2)OCO3)cc1 (stereo not given) | . | . | -3 | 0.0 | .
Cc1ccc(C)c(N2CCN(S(=O)(=O)c3c(C(=O)N4CCCCC4)c(C)n(C)c3C)CC2)c1 | . | . | -3 | 1.8 | .
COc1ccc(OC)c(C2NC(=O)N(C)C(C)=C2C(=O)OCc2ccccc2)c1 (stereo not given) | . | . | 0 | 6.1 | .
O=C(O)c1cc(N/N=C/c2ccc(OCc3ccccc3)cc2)ccc1Cl | . | -3% | 2 | 2.4 | 39*
CCN1CCCC1CNC(=O)c1cc([N+](=O)[O-])c(N(C)C)cc1OC (stereo not given) | . | . | -3 | 0.9 | .
Cc1ccc2c(c1)c(C)c(C)n2CC(O)Cn1nc(C)c(Br)c1C (stereo not given) | -18 | 21% | 7 | 7.9 | 2
Cc1ccc(-c2ccccc2NC(=O)CS(=O)CC(=O)Nc2ccc(C)c(Cl)c2)o1 (stereo not given) | . | . | 1 | -2.5 | .
CS(=O)(=O)N(CC(=O)N1CCCCC1)c1ccc(Cl)c(C(F)(F)F)c1 | 4 | 4% | -5 | -0.9 | 9
Fc1ccc(/C=N/n2c(-c3cccs3)n[nH]c2=S)cc1 | -18 | -2% | 9 | 1.7 | 0
Going on with the list.
SMILES | YopH PTP inh | Mtb growth | Mtb bLac sens | RecA intein inh | Arbovirus anti | others
O=C(CNC(=O)C(c1ccccc1)c1ccccc1)N/N=C\c1cccc(O)c1 | . | -2% | 11 | 0.6 | .
Clc1nssc1=Nc1ccccc1 | . | -11% | . | . | 10
CCOC(=O)C1NN=C(C(=O)c2ccccc2)C1c1ccc(Cl)cc1 (stereo not given) | . | 1% | 7 | 7.2 | 2
CCOC(=O)CN(C(=O)COc1ccc2c(C)cc(=O)oc2c1)c1ccc(OCC)cc1 | . | -6% | 3 | 0.9 | 4
CCCSC1=C(C#N)C(c2ccccc2C)CC(=O)N1 (stereo not given) | -53 | 3% | -23 | -0.8 | -7
CC(C)c1ccc(NC(=O)COC(=O)CSc2nnc(N)s2)cc1 | -12 | -2% | -8 | 2.1 | 1
OCCC1CN(C2CCSCC2)CCN1C1CCCC1 (stereo not given) | . | 0% | -8 | -2.4 | -8
COCCNC(=O)c1c(N)n(Cc2ccco2)c2nc3ccccc3nc12 | -11 | 1% | 13 | i | 5
CN(Cc1cccnc1)C(=O)c1ccc2nc(Cc3ccccc3F)oc2c1 | . | . | -2 | 0.5 | .
COc1cc(OC)nc(Oc2ccccc2C(=O)Oc2ccc(F)cc2Cl)n1 | -78 | 3% | 1 | 12 | 17
COc1ccc(N2C(=O)c3ccccc3NC2c2ccccc2O)cc1 (stereo not given) | . | . | -2 | -0.7 | .

Ordered by heavy-atom count (rising): 3 of the compounds above
SMILES | YopH PTP inh | Mtb growth | Mtb bLac sens | RecA intein inh | Arbovirus anti | others
Clc1nssc1=Nc1ccccc1 | . | -11% | . | . | 10
CN(Cc1cccnc1)C(=O)c1ccc2nc(Cc3ccccc3F)oc2c1 | . | . | -2 | 0.5 | .
CCOC(=O)CN(C(=O)COc1ccc2c(C)cc(=O)oc2c1)c1ccc(OCC)cc1 | . | -6% | 3 | 0.9 | 4
